Source: PubChem (several laboratories)
Arbovirus anti – antivirals against arbovirus infection, primary screen, cell-based, full library, 10K replicate subset; arbovirus infection cell-based antiviral screen; inhibition, % at 10 µM; 200,000 tested, 0.37% active; AID 1251, 2008;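 active = inhibition from about 30%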;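 note: bluetongue infection of BSR cells; cell survival read as ATP light after 72 h; 0% = infected wells without compound and 100% = uninfected wells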
Mtb bLac sens – beta-lactam sensitization of Mtb H37Rv, H37Rv. 330,000 tested, 0.27% active. M. tuberculosis H37Rv growth with meropenem, percent inhibition; hits of this screen are not shown here. AID 434955, 2010. inhibition, % at 25 µM;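 active = about 74% or more and at least 40 points above the plate without the antibiotic, then above 30% in a dose series; inconclusive = first-round hits that could not be retested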;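 note: growth measured after seven days incubation then overnight dye step; 0% = bacteria only wells and 100% = bacteria with antibiotic; twin plates without the antibiotic show which effects depend on it; some results filed as inactive read as strong as hits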
YopH PTP inh – YopH tyrosine phosphatase inhibitors, primary screen, biochemical, fluorescence Ex485/Em525 | YopH tyrosine phosphatase [Yersinia enterocolitica] | inhibition, %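 (about 10 µM by stock and volumes)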 | 140,000 tested, 0.16% active;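 active = inhibition of 50% or more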;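 note: controls were vehicle for no effect and minimum signal wells for full effect; inactives centre near -20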
Mtb H37Rv – M. tuberculosis H37Rv growth inhibitors, H37Rv strain (AID 1626); M. tuberculosis H37Rv growth inhibition; higher % means a stronger effect; inhibition, % at 10 µM; hits with a dose series show IC50 in µM; 220,000 tested, 0.95% active;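 active = confirmed in a dose series; inconclusive = inhibition above 80% but not taken into the dose series; inactive = below 80% or under 30% at every dose of the series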;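 note: bacteria incubated seven days before Alamar blue readout; 0% = bacteria only wells and 100% = bacteria with antibiotic wells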
RecA intein inh – Mtb RecA intein splicing inhibitors, primary screen, biochemical, fluorescence, HTS. cell-free RecA intein splicing. 290,000 tested, 0.75% active. Protein RecA (Mycobacterium tuberculosis (strain ATCC 25618 / H37Rv)), P9WHJ3. inhibition, %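 (about 9 µM by stock and volumes)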; in the data active = inhibition above about 30%; inconclusive = no clear call, values can overlap the other calls;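 note: 0% = vehicle wells and 100% = reference inhibitor control wells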
Target sequence (P9WHJ3 whole entry, looked up): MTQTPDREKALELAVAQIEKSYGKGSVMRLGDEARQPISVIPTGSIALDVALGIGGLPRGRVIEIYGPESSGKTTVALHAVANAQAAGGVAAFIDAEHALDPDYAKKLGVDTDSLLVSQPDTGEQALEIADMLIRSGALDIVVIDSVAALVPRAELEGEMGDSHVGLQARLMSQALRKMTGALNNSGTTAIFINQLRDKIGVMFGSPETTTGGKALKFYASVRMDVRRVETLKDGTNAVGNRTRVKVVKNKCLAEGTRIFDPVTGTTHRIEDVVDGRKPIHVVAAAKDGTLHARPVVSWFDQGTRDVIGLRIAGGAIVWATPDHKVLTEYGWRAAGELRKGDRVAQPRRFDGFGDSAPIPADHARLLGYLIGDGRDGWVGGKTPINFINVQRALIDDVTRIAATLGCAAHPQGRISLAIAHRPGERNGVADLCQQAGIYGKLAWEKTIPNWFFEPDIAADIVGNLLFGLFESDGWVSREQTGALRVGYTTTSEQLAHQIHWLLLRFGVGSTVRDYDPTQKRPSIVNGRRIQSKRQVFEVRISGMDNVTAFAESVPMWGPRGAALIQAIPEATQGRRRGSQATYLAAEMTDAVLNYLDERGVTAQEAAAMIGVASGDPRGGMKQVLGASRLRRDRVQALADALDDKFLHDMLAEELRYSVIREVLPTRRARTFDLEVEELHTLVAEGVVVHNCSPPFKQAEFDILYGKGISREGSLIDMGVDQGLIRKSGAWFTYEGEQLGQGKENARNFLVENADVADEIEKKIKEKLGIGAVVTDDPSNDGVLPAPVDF
Arbovirus anti repeat – recorded beside Arbovirus anti, whose call it bears; inhibition, %; measured here: 10K subset replicate screen; many hits read low in the repeat;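 first of two repeat runs on a subset; 0% = infected and 100% = uninfected wells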
Numbers without * were called inactive; ? = inconclusive; · = no result given; & = joins results of further samples.

SMILES | Arbovirus anti | Mtb bLac sens | YopH PTP inh | Mtb H37Rv | RecA intein inh | others
O=C(CCc1nc2ccccc2c(=O)[nH]1)N1CCN(S(=O)(=O)c2cccc([N+](=O)[O-])c2)CC1 | · | -11 | · | · | -0.4
CC(=O)OCC1=C(C(=O)O)N2C(=O)[C@@H](NC(=O)Cc3cccs3)[C@H]2SC1 | 3 | 4 | -23 | -3%&-4% | -4.4
CC(=O)N/C(N)=N/c1nc(=O)c2ccccc2s1 | · | -2 | · | -9% | -0.4
COc1ccc(-n2c(Cn3nnc4ccccc43)n[nH]c2=S)cc1 | 8 | 2 | -27 | 1% | 2.9
COc1cccc(C(CC(=O)NCCN2CCOCC2)NS(=O)(=O)c2ccc(C)cc2)c1OC (stereo not drawn) | 4 | -8 | -44 | -5% | -0.8
CC(C)NC(=O)NC(=O)COC(=O)c1ccccc1Oc1ccccc1 | 1 | 2 | -11 | 4% | ·
CCc1nn(CCCC(=O)NCc2ccccc2Br)c(=O)c2cc3occc3n12 | · | -9 | · | · | 1.1
COc1cc(-c2nc3cnccn3c2Nc2c(C)cccc2C)ccc1O | -1 | 6 | -15 | 0% | 20
COc1ccc(NC(=O)CCN2C(=O)c3ccccc3C2=O)cc1 | · | -5 | · | · | 0.9
Cc1onc(-c2ccccc2)c1C(=O)NCc1ccco1 | 0 | -8 | -22 | -9% | 2.0
c1ccc(Cn2nnnc2C(c2cccs2)N2CCCCCC2)cc1 (stereo not drawn) | 11 | 4 | -27 | 0% | 12
COCCn1c(SCC#N)nnc1-c1ccc([N+](=O)[O-])cc1 | 6 | 0 | · | -1% | 1.3
O=[N+]([O-])c1ccccc1S(=O)(=O)N1CCCC(C(F)(F)F)C1 (stereo not drawn) | · | 1 | · | · | 0.4
Cc1cccc(NC(=O)c2cc(S(=O)(=O)c3ccccc3)ccc2Cl)c1 | -3 | -20 | -17 | 3% | 13
Cc1ccccc1-n1c(Cn2c(=O)sc3ccccc32)nnc1SCC(=O)Nc1nccs1 | -3 | 0 | -43 | -4% | · | Arbovirus anti repeat=-6
CN1C(=O)CC(NNC(=O)c2ccc(Cl)cc2)C1=O (stereo not drawn) | 10 | -5 | -65 | 1% | -0.3
Cc1oc(C(C)(C)C)cc1C(=O)Nc1ccc(N2CCOCC2)cc1 | · | 4 | · | -4% | 1.3
CC(=O)c1cccc(S(=O)(=O)NCC2CCCCC2)c1 | -5 | -2 | -23 | -1% | -3.3
COc1ccc(CCCC(=O)N/N=C\c2cccs2)cc1 | 4 | 4 | · | -2% | -3.1
Cc1cccc(OCC(=O)Nc2ccc(NC(=O)c3ccccc3)cc2)c1 | · | 6 | · | · | -2.5
O=C(Nc1ccccc1N1CCCCC1)c1ccc(F)cc1 | -9 | 74 | -36 | 16% | 10
CCOC(=O)C1ON2CCCCC2C1(O)C(F)(F)F (stereo not drawn) | 12 | -3 | · | -2% | -1.3
O=c1oc2cc(O)ccc2s1 | · | 2 | · | · | -0.2
COc1ccccc1NC(=O)COC(=O)Cc1c[nH]c2ccccc12 | 4 | -1 | · | -8% | 2.3
CC(C)C(=O)Nc1nnn(C)n1 | 0 | 4 | -49 | -8% | -0.9
COc1ccc(C)cc1N(CC(=O)Nc1ccc(S(=O)(=O)N2CCOCC2)cc1)S(C)(=O)=O | · | -3 | · | · | 1.7
CC(C)Oc1ccc(C2NC(=O)NC2=O)cc1 (stereo not drawn) | 1 | 5 | -18 | -3% | 0.6
Cc1ccc(N2CC(NS(=O)(=O)c3cccnc3)CC2=O)cc1C (stereo not drawn) | · | 1 | · | · | -0.5
COc1ccc2c(c1)CC[C@@H]1[C@@H]2CC[C@]2(C)C(=O)CC[C@@H]12 | 0 | 2 | -41 | -3% | 0.6
Cc1ccc2nc(N3CCC(C(=O)NC4CCCCC4)CC3)sc2c1 | · | 2 | · | · | -1.3
CC1=C(C(=O)OC(C)C)C(C)C(C(=O)OC(C)C)=C(C)N1 | 7 | 35 | -27 | 7% | -1.9
CCc1ccc(OCC2c3cc(OC)c(OC)cc3CCN2C(C)=O)cc1 (stereo not drawn) | · | ? | · | · | 2.7
CC(C)CN(CC(C)C)C(=O)CN1C(=O)NC2(CCc3ccccc3C2)C1=O (stereo not drawn) | · | -3 | · | · | 0.5
Cc1ccc(S(=O)(=O)N2CCOCC2)cc1NC(=O)COC(=O)CNC(=O)c1ccccc1 | 2 | 1 | -22 | -3% | -0.7
CCOC(=O)N1CCN(C(=O)COc2cccc3c2CCN(Cc2ccc(F)cc2)C3=O)CC1 | 4 | 14 | -17 | · | -0.3
CN(C(=O)CN1CCC(NC(=O)C2CCCCC2)CC1)C1CCCCC1 | -7 | -1 | -24 | -22% | 1.1
COc1cc(/C=N/NC(=O)CN2CCOCC2)ccc1OCc1ccccc1 | 2 | 4 | -23 | -8% | 6.0
O=C(CNS(=O)(=O)c1ccc(Br)cc1)OCc1cc(=O)n2cc(Br)ccc2n1 | 1 | -1 | -22 | -2% | -3.3
c1ccc2c(Nc3nc4c(s3)CCCC4)cccc2c1 | -2 | 28 | -46 | -2% | 8.2
COc1ccc(C(CNC(=O)CSc2ccccc2C)N(C)C)cc1 (stereo not drawn) | · | -10 | · | · | 1.6
CCOC(=O)C1CCCN(c2c(NCCCN3CCCC(C)C3)c(=O)c2=O)C1 (stereo not drawn) | -2 | -3 | -1 | -5% | -0.2 | Arbovirus anti repeat=4
Fc1cccc(-c2cc3nc4c(c(N5CCOCC5)n3n2)CCCC4)c1 | 0 | 8 | -26 | 11% | 14
Cc1ccc(NC(=S)N(CCN2CCCCC2)Cc2ccco2)cc1C | 23 | -4 | · | 2% | -0.1
CC(=O)c1ccc(Oc2cc(C(F)(F)F)cnc2C(N)=O)cc1 | 16 | 1 | · | -5% | -1.2
Cc1cccc(NC(=O)Cn2c(=O)n(CC3CCCO3)c(=O)c3ccccc32)c1 (stereo not drawn) | · | 0 | · | · | -0.6
CN1CCN(NC(=S)Nc2ccccc2)CC1 | 10 | -8 | · | -6% | -0.8
COc1ccccc1P(=O)(Cc1ccccc1)c1ccccc1 (stereo not drawn) | · | 2 | · | · | -1.0
CC(C)C1=C2CCCCC2NC(=O)N1 (stereo not drawn) | -5 | 5 | -48 | -3% | 0.6
CCOc1ccc(-c2nc(CCl)cs2)cc1 | -2 | -4 | · | 1% | 2.6
O=C(Cn1nnc(-c2ccc(S(=O)(=O)N3CCCC3)cc2)n1)Nc1ccccc1-n1cccc1 | 14 | -5 | -55 | 2% | -1.8
CN1C(=O)N(C)C2(c3ccccc3)NC(=O)NC12c1ccccc1 (stereo not drawn) | 2 | -2 | -26 | -7% | -0.1
Cc1ccc(/C=N/NC(=O)CNC(=O)c2ccc(S(=O)(=O)N(C)C)cc2)cc1 | -3 | -4 | · | -5% | ·
O=C(Cn1ncc2c([nH]c3ccccc32)c1=O)NCCc1ccc(Cl)cc1 | · | 13 | · | · | -3.7
Cc1cc(C)cc(NC(=O)N2CCCC2C(=O)NCc2ccco2)c1 (stereo not drawn) | 5 | 3 | · | 6% | 0.6
CCn1c2ccccc2c2cc(NC(=O)COC(=O)c3cc(OC)c(OC)cc3OC)ccc21 | -5 | 8 | -20 | -1% | 0.3
COc1ccc2nc(NC(=O)c3cnccn3)sc2c1 | -17 | 83 | -28 | 86% | 1.8
CC1CC(=O)C(C2c3ccccc3CCN2C(=O)CCl)C(=O)C1 (stereo not drawn) | 1 | 2 | -29 | -4% | -0.8
Cn1c(N)c(C(=O)COC(=O)c2cccnc2Cl)c(=O)n(C)c1=O | -1 | -1 | · | 0% | -0.2
Cc1ccc(NC(=O)c2cc3c(s2)CCCC3)cc1S(=O)(=O)Nc1ccccc1Cl | -26 | 9 | -44 | 16% | 3.9
CC(=O)Nc1ccc(S(=O)(=O)Nc2nc3n(n2)C(c2ccccc2)CC(=O)N3)cc1 (stereo not drawn) | -3 | 6 | 29 | -6% | -1.0

Sorted by number of heavy atoms (smallest number first): some entries from above.
SMILES | Arbovirus anti | Mtb bLac sens | YopH PTP inh | Mtb H37Rv | RecA intein inh | others
O=c1oc2cc(O)ccc2s1 | · | 2 | · | · | -0.2
CC(C)C(=O)Nc1nnn(C)n1 | 0 | 4 | -49 | -8% | -0.9
CC(C)C1=C2CCCCC2NC(=O)N1 (stereo not drawn) | -5 | 5 | -48 | -3% | 0.6
CCOc1ccc(-c2nc(CCl)cs2)cc1 | -2 | -4 | · | 1% | 2.6
CN1CCN(NC(=S)Nc2ccccc2)CC1 | 10 | -8 | · | -6% | -0.8
CCOC(=O)C1ON2CCCCC2C1(O)C(F)(F)F (stereo not drawn) | 12 | -3 | · | -2% | -1.3
c1ccc2c(Nc3nc4c(s3)CCCC4)cccc2c1 | -2 | 28 | -46 | -2% | 8.2
Cc1onc(-c2ccccc2)c1C(=O)NCc1ccco1 | 0 | -8 | -22 | -9% | 2.0
O=[N+]([O-])c1ccccc1S(=O)(=O)N1CCCC(C(F)(F)F)C1 (stereo not drawn) | · | 1 | · | · | 0.4
COc1ccccc1P(=O)(Cc1ccccc1)c1ccccc1 (stereo not drawn) | · | 2 | · | · | -1.0
Cc1ccc(N2CC(NS(=O)(=O)c3cccnc3)CC2=O)cc1C (stereo not drawn) | · | 1 | · | · | -0.5
c1ccc(Cn2nnnc2C(c2cccs2)N2CCCCCC2)cc1 (stereo not drawn) | 11 | 4 | -27 | 0% | 12
CN(C(=O)CN1CCC(NC(=O)C2CCCCC2)CC1)C1CCCCC1 | -7 | -1 | -24 | -22% | 1.1
O=C(Cn1ncc2c([nH]c3ccccc32)c1=O)NCCc1ccc(Cl)cc1 | · | 13 | · | · | -3.7
CC(C)CN(CC(C)C)C(=O)CN1C(=O)NC2(CCc3ccccc3C2)C1=O (stereo not drawn) | · | -3 | · | · | 0.5
CCc1nn(CCCC(=O)NCc2ccccc2Br)c(=O)c2cc3occc3n12 | · | -9 | · | · | 1.1
CC(=O)Nc1ccc(S(=O)(=O)Nc2nc3n(n2)C(c2ccccc2)CC(=O)N3)cc1 (stereo not drawn) | -3 | 6 | 29 | -6% | -1.0
Cc1ccccc1-n1c(Cn2c(=O)sc3ccccc32)nnc1SCC(=O)Nc1nccs1 | -3 | 0 | -43 | -4% | · | Arbovirus anti repeat=-6
CCOC(=O)N1CCN(C(=O)COc2cccc3c2CCN(Cc2ccc(F)cc2)C3=O)CC1 | 4 | 14 | -17 | · | -0.3

Carrying on:
SMILES | Arbovirus anti | Mtb bLac sens | YopH PTP inh | Mtb H37Rv | RecA intein inh | others
Cc1ccc2oc(C(=O)N(Cc3ccncc3)CC3CCCO3)c(C)c2c1 (stereo not drawn) | · | -15 | · | · | -0.4
CCOc1ccc(C(=O)Nc2ccc(S(=O)(=O)Nc3nccc(C)n3)cc2)cc1OCC | · | 10 | · | · | -0.6
COc1cc(OC)nc(Oc2ccccc2C(=O)Oc2ccc(C)cc2)n1 | 2 | 1 | 12 | 2% | 11
Cc1c(S(=O)(=O)Nc2ccc3c(c2)OCCO3)c(=O)n(C)c(=O)n1C | 6 | 2 | -39 | -3% | -3.5
O=C(CCc1nnc(-c2ccccc2)o1)NCc1cc(F)ccc1F | -1 | -3 | · | -6% | -2.3
CCC(=O)Nc1nc2n(n1)C(c1ccc(OC)cc1)C=C(c1ccccc1)N2 (stereo not drawn) | 4 | 3 | -34 | -3% | -321
CN(C1CCCCC1)S(=O)(=O)c1ccc(S(=O)(=O)N2CCCC2)cc1 | 7 | -7 | 16 | 3% | -0.9
CCOc1ccc2c(c1)sc1nc(C(=O)OC)cc(=O)n12 | · | 8 | -25 | -5% | -3.9
CC(C)(C)c1ccc(C(=O)Nc2ccc(Oc3cccnc3)nc2)cc1 | · | 59 | · | 9% | ·
CC(=O)c1ccc(NC(=O)CSc2ccc3nnc(-c4cccnc4)n3n2)cc1 | 11 | 7 | · | -10% | -1.5
N#Cc1c(N)nc2c(c1-c1ccc3c(c1)OCO3)CCc1ccccc1-2 | -28 | 71 | -12 | 40% | -3.4
CNC(=O)c1ccc(Nc2nnc(-c3ccc(C)c(S(=O)(=O)NCC4CCCO4)c3)c3ccccc23)cc1 (stereo not drawn) | -8 | 2 | -14 | 5% | 2.2
NC(=O)COc1ccccc1C(=O)O | 9 | -7 | · | 0% | 1.8

These rows are one share of the data; the hit share may differ from the screen's.
